Compound activity (PubChem)
RecA splice inh = Mtb RecA intein splicing inhibitors, primary screen, biochemical, fluorescence, HTS; cell-free RecA intein splicing; 290,000 compounds, 0.75% hits; inhibition, %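 (about 9 µM by stock and volumes)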; in the data active means inhibition above about 30%;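 further: 0% = vehicle wells and 100% = reference inhibitor control wells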
Target sequence (P9WHJ3 whole entry, looked up, canonical isoform): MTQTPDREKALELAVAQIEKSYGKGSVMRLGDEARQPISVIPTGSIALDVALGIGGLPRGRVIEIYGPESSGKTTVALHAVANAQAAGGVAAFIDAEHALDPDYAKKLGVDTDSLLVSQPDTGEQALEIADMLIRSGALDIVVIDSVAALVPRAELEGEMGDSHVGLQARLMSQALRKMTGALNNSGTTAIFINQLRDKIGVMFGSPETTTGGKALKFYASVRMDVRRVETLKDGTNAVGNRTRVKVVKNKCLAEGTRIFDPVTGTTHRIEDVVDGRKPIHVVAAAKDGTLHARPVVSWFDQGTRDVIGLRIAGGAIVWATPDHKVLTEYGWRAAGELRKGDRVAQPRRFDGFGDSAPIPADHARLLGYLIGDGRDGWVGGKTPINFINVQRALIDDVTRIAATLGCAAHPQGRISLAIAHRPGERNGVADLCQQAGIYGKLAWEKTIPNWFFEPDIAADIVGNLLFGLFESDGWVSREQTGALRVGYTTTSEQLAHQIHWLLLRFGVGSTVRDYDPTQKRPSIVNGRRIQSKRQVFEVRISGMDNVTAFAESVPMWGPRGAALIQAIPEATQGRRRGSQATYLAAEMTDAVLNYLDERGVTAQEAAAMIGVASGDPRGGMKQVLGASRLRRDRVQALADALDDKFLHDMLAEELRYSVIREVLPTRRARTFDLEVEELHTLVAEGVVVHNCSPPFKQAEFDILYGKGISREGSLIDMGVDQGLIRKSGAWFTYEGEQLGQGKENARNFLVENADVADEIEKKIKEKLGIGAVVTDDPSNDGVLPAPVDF
Mtb betalactam = beta-lactam sensitization of Mtb H37Rv, H37Rv. M. tuberculosis H37Rv growth with meropenem, percent inhibition; hits of this screen are not shown here. inhibition, % at 25 µM. 330,000 compounds, 0.27% hits. AID 434955, 2010;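 active means about 74% or more and at least 40 points above the plate without the antibiotic, then above 30% in a dose series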;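 further: growth measured after seven days incubation then overnight dye step; 0% = bacteria only wells and 100% = bacteria with antibiotic; twin plates without the antibiotic show which effects depend on it; some results filed as inactive read as strong as hits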
Starred values were filed as active, the others as inactive; . = not tested or not shown. A portion of the library; the hit share may differ from the screen's.

Values in the order: RecA splice inh | Mtb betalactam
COc1cc(C2/C(=C(\O)c3ccc4c(c3)CC(C)O4)C(=O)C(=O)N2CC2CCCO2)cc(OC)c1OC (centres undefined)
  -9.6 | .
Cc1ccc2oc(C(=O)NC3CCS(=O)(=O)C3)c(C)c2c1 (centres undefined)
  -3.2 | .
COc1ccc(N2CCN(C(=O)c3ccc(COc4ccc([N+](=O)[O-])cc4)o3)CC2)cc1
  3.7 | .
Cc1cccc(CCN(C(=O)c2snc(C(N)=O)c2N)C(C(=O)NCC2CCCO2)c2ccc(F)cc2)c1 (centres undefined)
  0.2 | .
COc1cc2nc(NC(=O)c3ccccc3)sc(=O)c2cc1OC
  2.3 | .
O=C(O)c1ccccc1NC1CCCCC1NS(=O)(=O)c1ccccc1 (centres undefined)
  -1.0 | .
COc1nccnc1NS(=O)(=O)c1ccc(N)cc1
  -1.9 | .
Cc1ccc([N+](=O)[O-])cc1NC(=S)NC(=O)c1c(Cl)cnn1C
  -0.1 | .
CCN(CC)S(=O)(=O)c1ccc(NC(=S)NC(=O)C2CCC2)cc1
  -8.8 | .
COc1cccc(C(=O)Nc2cc3c(cc2N2CCOCC2)n(C)c(=O)n3C)c1
  -2.2 | .
CC1CN(C(=O)c2ccc(NS(=O)(=O)c3cccc(Cl)c3)cc2)CC(C)O1 (centres undefined)
  0.3 | .
Oc1c(Cl)cc(Cl)cc1CNc1ccccn1
  3.2 | .
COc1ccc(CCN2CCCn3c2nc2c3c(=O)n(C)c(=O)n2C)cc1OC
  0.3 | .
C=CCOc1ccc(C(=O)Nc2ccccc2C(=O)N2CCCC2)cc1
  4.1 | .
COc1nc2ccccc2nc1N1CCN(Cc2ccc3c(c2)OCO3)CC1
  -0.3 | .
CCc1cc2c(-c3ccccc3)cc(=O)oc2cc1OC(C)C(C)=O (centres undefined)
  5.7 | .
CCOc1cccc(C(=O)Nc2cc(C)ccc2NC(=O)c2ccco2)c1
  -2.2 | .
Cn1c2ccc(F)cc2c2nnc(SCCN3CCOCC3)nc21
  0.1 | .
COc1ccc(N2CC(C(=O)NCc3n[nH]c(=O)c4ccccc34)CC2=O)cc1 (centres undefined)
  -5.4 | .
CCC1Nc2ncnc(N3CCN(c4ccccc4)CC3)c2N(Cc2ccc(Br)cc2)C1=O (centres undefined)
  11.5 | .
CCOC(=O)c1c(C)n(-c2ccccc2)c2ccc(OCCN(C)C)cc12
  4.4 | .
COc1ccc(C(=O)O)cc1S(=O)(=O)Nc1ccccc1Cc1ccccc1
  3.8 | .
CCC(OC(=O)CN1C(=O)C(=O)c2ccccc21)C(=O)Nc1ccccc1OC (centres undefined)
  -0.1 | .
COc1cccc(S(=O)(=O)NCc2ccc(C(=O)N3CCN(C)CC3)cc2)c1
  6.1 | .
CCc1ccc(NC(=O)CC2S/C(=N/N=C3CCCCCC3)NC2=O)cc1 (centres undefined)
  2.3 | .
Cc1ccc(NC(=O)CN2CCN(C)CC2)cc1Br
  4.1 | .
CC1CN(C(=O)c2cc(S(=O)(=O)N3CCCC3)ccc2Cl)CC(C)O1 (centres undefined)
  -0.2 | .
CCn1cc(/C=C(\NC(=O)c2ccc(OC)cc2)C(=O)N2CCN(C)CC2)c2ccccc21
  -3.3 | .
O=C(CN1C(=O)c2ccccc2S1(=O)=O)Nc1ncc([N+](=O)[O-])s1
  15.7 | .
CN(C)CCNc1nc2sc3c(c2c(=O)n1Cc1ccccc1)CCCCC3
  -0.4 | .

Compounds above with an aryl methoxy group, in the order listed:
Values in the order: RecA splice inh | Mtb betalactam
COc1cc(C2/C(=C(\O)c3ccc4c(c3)CC(C)O4)C(=O)C(=O)N2CC2CCCO2)cc(OC)c1OC (centres undefined)
  -9.6 | .
COc1ccc(N2CCN(C(=O)c3ccc(COc4ccc([N+](=O)[O-])cc4)o3)CC2)cc1
  3.7 | .
COc1cc2nc(NC(=O)c3ccccc3)sc(=O)c2cc1OC
  2.3 | .
COc1nccnc1NS(=O)(=O)c1ccc(N)cc1
  -1.9 | .
COc1cccc(C(=O)Nc2cc3c(cc2N2CCOCC2)n(C)c(=O)n3C)c1
  -2.2 | .
COc1ccc(CCN2CCCn3c2nc2c3c(=O)n(C)c(=O)n2C)cc1OC
  0.3 | .
COc1nc2ccccc2nc1N1CCN(Cc2ccc3c(c2)OCO3)CC1
  -0.3 | .
COc1ccc(N2CC(C(=O)NCc3n[nH]c(=O)c4ccccc34)CC2=O)cc1 (centres undefined)
  -5.4 | .
COc1ccc(C(=O)O)cc1S(=O)(=O)Nc1ccccc1Cc1ccccc1
  3.8 | .
CCC(OC(=O)CN1C(=O)C(=O)c2ccccc21)C(=O)Nc1ccccc1OC (centres undefined)
  -0.1 | .
COc1cccc(S(=O)(=O)NCc2ccc(C(=O)N3CCN(C)CC3)cc2)c1
  6.1 | .
CCn1cc(/C=C(\NC(=O)c2ccc(OC)cc2)C(=O)N2CCN(C)CC2)c2ccccc21
  -3.3 | .

More entries.
Values in the order: RecA splice inh | Mtb betalactam
CCOc1ccccc1NC(=O)N1CCCC1C(=O)NCc1ccco1 (centres undefined)
  0.3 | .
COc1ccc(CC2=C(O)c3ccccc3C(=O)C2=O)cc1
  2.1 | .
COc1ccc(C(C(=O)NCC2CCCO2)N(C(=O)c2snc(C(N)=O)c2N)c2ccc(C)cc2)cc1OC (centres undefined)
  -4.8 | .
Cn1c(-c2ccc(F)cc2)cnc1NCc1ccc(F)cc1F
  0.0 | .
COc1ccc(N(CC(=O)NCc2ccco2)C(=O)CCC(=O)Nc2ccccn2)cc1
  3.1 | .
Cn1c(=O)[nH]c(=O)c2c1[nH]c(=S)n2CCCc1ccccc1
  1.4 | .
CCOc1ccc(NC(=S)NC(=O)c2cnn(CC)c2)c([N+](=O)[O-])c1
  -5.7 | .
Cc1ccc2c(CN3CCCCC3C)cc(=O)oc2c1C (centres undefined)
  -0.4 | .
COc1ccc(NC(=O)CN2CCN(CC(=O)Nc3ccc(F)cc3F)CC2)cc1
  1.2 | .
CCOC(=O)c1cnc2c(c(C)nn2-c2ccc(C)cc2)c1Cl
  -0.6 | .
O=c1[nH]c(/C=C/c2cccc(Br)c2)nc2ccccc12
  -2.8 | .
COC(=O)CCC(C)N1CCC(Oc2ccc(C(=O)NCc3ccccn3)cc2)CC1 (centres undefined)
  0.0 | .
O=C(Cc1ccccc1)Nc1ccc(S(=O)(=O)N2CCCC2)cc1
  0.3 | .
CCc1cc2c(=O)c(-c3nc4ccccc4n3C)coc2c(CN2CCCCC2)c1O
  0.8 | .
CC(C)c1cc(C(=O)N2CCCC(N3CCN(c4ccc(F)cc4)CC3)C2)n(C)n1 (centres undefined)
  -1.0 | .
Cn1c(CNC(=O)c2ccco2)nnc1SCCOc1ccccc1
  0.8 | .
Cc1ccc(N(C(=O)c2snc(C(N)=O)c2N)C(C(=O)NCC2CCCO2)c2ccc3ncccc3c2)cc1 (centres undefined)
  -3.4 | .
O=c1[nH]c2ccccc2n1C1=CCNCC1
  -0.4 | .
COc1cccc(NC(=O)CSc2nnc3ccc(-c4ccccn4)nn23)c1
  -2.5 | .
Cc1onc(-c2ccccc2)c1C(=O)N/N=C/c1cc(Br)c(O)c(Br)c1
  2.3 | .
COc1ccc(C(=O)N/N=C/C(=O)c2ccccc2)cc1
  -1.3 | .
COc1cccc(OC)c1NC(=O)C1CCCN1C(=O)Nc1ccccc1F (centres undefined)
  -1.4 | .
CCCc1c(C(=O)N/N=C/c2ccncc2)nnn1-c1nonc1N
  -1.3 | .
O=C(COc1cccc2c1CCNC2=O)Nc1ccc(F)cc1
  1.6 | .
CCOc1ccc(C(C(=O)NCC2CCCO2)N(CCc2cccc(C)c2)C(=O)c2snc(C(N)=O)c2N)cc1 (centres undefined)
  0.3 | .
Cc1ccc(C)c(Cn2nc3c4ccccc4n(Cc4ccccc4)cc-3c2=O)c1
  2.4 | .
CC1(C)CCN2CCC(C)(C)c3c(O)ccc1c32
  13.1 | .
COc1cc(OC)c(OC)cc1/C=C1\CCC/C(=C\c2cc(OC)c(OC)cc2OC)C1=O
  2.3 | .
COC(=O)c1ccccc1S(=O)(=O)N1CCC(NC(=O)C(Cc2cccc(OC)c2OC)NC(C)=O)CC1 (centres undefined)
  -5.4 | .
COC(=O)/C(C#N)=C/c1c(N2CCN(c3ccccc3)CC2)nc2c(C)cccn2c1=O
  3.0 | .
COc1ccc(CCN2CC(C(=O)NCCc3cccc(F)c3)CCC2=O)cc1 (centres undefined)
  1.9 | .
Cc1ccc(C2CC3CCC(C2)N3Cc2ccccc2F)cc1 (centres undefined)
  0.1 | .
O=C(COc1ccc(S(=O)(=O)NCc2ccccc2)cc1)NCc1cccnc1
  -0.4 | .
O=C(c1ccc(OC2CCN(CCc3ccccc3)CC2)cc1)N1CCC[C@H]1CO
  -5.6 | .
CC(=O)C12CCCCC1CC1[C@@H]3CC(C)C4=CC(=O)CC[C@]4(C)C3CC[C@@]12C (some centres undefined)
  4.2 | .
Nc1nonc1-n1nnc(C(=O)N/N=C/c2ccccn2)c1-c1ccccc1
  -1.2 | .
COCCC(=O)N1CCC(Oc2ccc(C(=O)N3CCCC(COC)C3)cc2)CC1 (centres undefined)
  3.2 | .
COc1ccccc1CNc1ncc(-c2ccccc2)n1C
  -1.1 | .
COC(=O)Cn1c2ccc(C)cc2c2nc3ccccc3nc21
  0.1 | .
Cc1cc(C)n(CC(C)NC(=O)c2cc(COc3ccc(F)c(F)c3)on2)n1 (centres undefined)
  -1.3 | .
CCC(=O)N1CCN(c2ccc(NC(=O)c3ccco3)cc2Cl)CC1
  -3.6 | .
C/C(=N/NC(=O)c1ccc(Cn2cccn2)o1)c1cccc(NC(=O)c2ccncc2)c1
  -3.0 | .
Cc1ccc(C(=O)CC(C(=O)O)n2cncn2)cc1 (centres undefined)
  -2.3 | .
COC(=O)c1cc(OC)c(OC)cc1NC(=S)N1CCOCC1
  -0.3 | .
CC1CCN(C(=S)NC(=O)c2ccc(C(C)(C)C)cc2)CC1
  6.3 | .
CCc1ccccc1NS(=O)(=O)c1cc2c3c(c1)CCN3C(=O)CC2
  5.9 | .
COc1ccccc1OCc1nnc(SCC(=O)N2CCCCC2)o1
  -0.5 | .
O=C(O)C(c1ccccc1)N1C(=O)/C(=C\c2ccc(-c3ccc(Br)cc3)o2)SC1=S (centres undefined)
  20.2 | .
CC(=O)c1cccc(NC(=O)CCC(=O)c2ccc(F)cc2)c1
  -0.9 | .
O=C(Nc1ccccc1Br)c1cccc2ccccc12
  2.4 | .

Single records (already shown). Order of screens: RecA splice inh, Mtb betalactam
O=C(Nc1ccccc1Br)c1cccc2ccccc12 in the list: 2.4, .
Cc1ccc(C(=O)CC(C(=O)O)n2cncn2)cc1 (centres undefined) in the list: -2.3, .

New compounds follow:
Values in the order: RecA splice inh | Mtb betalactam
O=c1[nH]c(/C=C\c2cccc(C(F)(F)F)c2)nc(O)c1[N+](=O)[O-]
  0.2 | .
COCc1cc(CNC(=O)C2CCC(=O)N(Cc3cccc(OC)c3)C2)[nH]n1 (centres undefined)
  -2.2 | .
CCN(CC)CCn1c2c(c(SCC(=O)Nc3cccc(C(C)=O)c3)nc1=O)CCCC2
  8.0 | .
CCCCc1nc2cc(C(=O)N3CCC(O)CC3)ccc2o1
  -1.0 | .
Clc1cccc(CNc2nc(-c3cccnc3)nc3ccccc23)c1
  1.7 | .
Cc1cc(C)c(/C=C2\C(=O)Nc3ccccc32)[nH]1
  -5.4 | .
O=C(CCN1C(=O)C2C3CCC(C3)C2C1=O)Nc1ccc(Cl)cc1Cl (centres undefined)
  -0.2 | .
COc1ccc(Cl)cc1-n1c(=S)sc2c(=O)[nH]c(SCC(=O)NCCC(C)C)nc21
  0.6 | .
COc1ccc(CCN2CC(C(=O)NCc3cc(C(C)C)no3)CCC2=O)cc1 (centres undefined)
  1.9 | .
Cc1ccnc(NC(=O)CCN2C(=O)c3ccccc3S2(=O)=O)n1
  1.6 | .
CN1CCN(C(=O)CCCN2C(=O)/C(=C/c3cccc(Br)c3)SC2=S)CC1
  16.1 | .
O=C(CCCCCN1C(=O)c2cccc([N+](=O)[O-])c2C1=O)Nc1ccccc1F
  -2.5 | .
CCC(=O)Nc1ccc(C(=O)NNC(=O)c2ccc(Cl)cc2)cc1
  -0.3 | .
CSCCC(NC(=O)c1ccc(Cl)cc1Cl)C(=O)NNC(=O)c1ccncc1 (centres undefined)
  . | -11.9
COCCN(Cc1nnc(-c2cccs2)o1)C(=O)CN1C(=O)NC2(CCCCC2)C1=O
  . | 2.5
CCCN(CC(=O)Nc1ccccc1OC)C(=O)Cc1ccccc1F
  . | -30.8
COc1cccc2c1[C@@H]1CN(CCCCn3c(=O)[nH]c4c(sc5ncc(-c6ccccc6)nc54)c3=O)C[C@@H]1CO2
  . | 99.7
COc1cccc(-c2nnc(SCC(=O)NC3CCS(=O)(=O)C3)n2C)c1 (centres undefined)
  . | 5.2
CCOc1ccc(NC(=O)COc2ccc(C(=O)NCC3CCCO3)cc2OC)cc1 (centres undefined)
  . | -0.8

Rewritten field by field: two of the compounds above
Structure: CCC(=O)Nc1ccc(C(=O)NNC(=O)c2ccc(Cl)cc2)cc1
  RecA splice inh: -0.3
  Mtb betalactam: .

Structure: CSCCC(NC(=O)c1ccc(Cl)cc1Cl)C(=O)NNC(=O)c1ccncc1 (centres undefined)
  RecA splice inh: .
  Mtb betalactam: -11.9
